KCNQ2 block = KCNQ2 channel blockers in CHO-K1 cells – cell-based, FluxOR thallium flux, B-score, primary screen (AID 2156); O88943; 20 min; stronger effect = lower value; only compounds with negative scores are shown here; some inactives read as strong as hits; B-score at 10 µM; hit rate 1.1% among 310,000;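 active = fluorescence ratio B-score at most minus 3 library SDs, with starting brightness B-score within 2 library SDs, cut at about -5.5 in these data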
Target sequence (O88943 whole entry, looked up): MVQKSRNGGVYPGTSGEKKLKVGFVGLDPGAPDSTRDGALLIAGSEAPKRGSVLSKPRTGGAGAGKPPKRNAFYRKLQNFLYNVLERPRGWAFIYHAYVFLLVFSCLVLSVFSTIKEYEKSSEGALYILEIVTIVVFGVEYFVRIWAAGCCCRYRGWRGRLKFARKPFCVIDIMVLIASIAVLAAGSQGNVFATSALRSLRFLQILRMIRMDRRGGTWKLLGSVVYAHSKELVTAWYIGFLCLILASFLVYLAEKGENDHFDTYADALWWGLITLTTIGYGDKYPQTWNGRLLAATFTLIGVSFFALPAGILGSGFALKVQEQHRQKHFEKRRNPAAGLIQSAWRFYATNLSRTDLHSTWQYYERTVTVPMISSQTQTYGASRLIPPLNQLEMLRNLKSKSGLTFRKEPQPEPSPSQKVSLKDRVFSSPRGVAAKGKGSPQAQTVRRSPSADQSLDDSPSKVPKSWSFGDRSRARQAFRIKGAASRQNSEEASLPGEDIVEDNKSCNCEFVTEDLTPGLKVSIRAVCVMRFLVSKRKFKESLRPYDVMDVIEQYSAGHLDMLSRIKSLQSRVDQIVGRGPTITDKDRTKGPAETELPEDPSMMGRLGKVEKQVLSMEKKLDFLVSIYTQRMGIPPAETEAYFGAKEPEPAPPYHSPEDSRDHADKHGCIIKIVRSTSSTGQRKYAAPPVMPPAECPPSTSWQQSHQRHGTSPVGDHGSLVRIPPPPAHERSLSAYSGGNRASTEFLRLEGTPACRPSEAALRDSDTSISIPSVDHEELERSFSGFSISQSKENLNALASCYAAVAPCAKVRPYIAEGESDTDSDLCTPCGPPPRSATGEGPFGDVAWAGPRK
KCNQ2 block baseline = recorded beside KCNQ2 block, whose call it bears; B-score; measured here: initial fluorescence intensity artifact check;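 brightness before thallium and not channel activity; 0 = typical well and far values either way flag optical interference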
Active calls of the source: *; i = inactive. The list is partial; count on the stated rates, not on these rows.

SMILES | KCNQ2 block | KCNQ2 block baseline
CCOC(=O)C1=C(N)N2C(=O)C(C)SC2=C(C(=O)OC)C1c1cccc(OC)c1 (stereo unspecified) | i | -0.81
COc1ccc(C(=O)C2CCCN(C(=O)c3cnsn3)C2)c(C)c1 (stereo unspecified) | i | 0.9
C=CCNC(=O)C1CCCN(S(=O)(=O)c2ccc(-n3cnnn3)cc2)C1 (stereo unspecified) | i | 0.17
O=[N+]([O-])c1cnc2nc(-c3ccncc3)nn2c1O | i | 2.34
CC(C)c1ccc2[nH]c(O)c(N=NC(=O)c3cccc(S(=O)(=O)Nc4ccc(Cl)cc4)c3)c2c1 | i | 7.68
CCOC(=O)c1cnc2c(c(C)nn2-c2ccc(C)cc2)c1Cl | i | 0.9
COc1ccc(-c2cc(C(=O)Nc3cc(C)n(Cc4ccc(Cl)cc4)n3)no2)cc1OC | i | -0.56
CCC(NC(=O)c1ccccc1NC(=O)C(C)(C)C)C(=O)N1CCCC1 (stereo unspecified) | i | 0.03
CC(C)Oc1ccc(C(=O)Nc2nc3ccccc3[nH]2)cc1 | i | 0.05
Cc1cccc(C)c1NC(=O)COC(=O)c1ccccc1[N+](=O)[O-] | i | -1.27
O=C(c1cc2sccc2n1Cc1ccccc1)N1CCN(c2nc3ccccc3s2)CC1 | i | -2.15
Cc1nc(C(=O)N2CCc3c([nH]c4ccccc34)C2c2cc(F)ccc2F)cs1 (stereo unspecified) | i | 1.39
CCn1nc(C)c(CN2CCC(C(=O)Nc3cccc(-c4cccc(F)c4)c3)CC2)c1C | i | -1.26
CC1=NN(C(C#N)c2ccccc2)C(C)(C)C1 (stereo unspecified) | i | 0.96
CCN(CC(=O)NCc1cccs1)C(=O)c1cc(S(=O)(=O)N2CCCCC2)ccc1Cl | i | 0.55
Cn1c(Cc2ccccc2)nnc1SCC(=O)Nc1cccc(S(=O)(=O)NC2=NCCCCC2)c1 | i | 0.06
CCCCN(CCCC)C1=Nc2ccccc2N/C1=C(/C#N)C(=O)OCC | i | -0.71
CC(C)CN1CCC(CNC(=O)CCc2nnc(Cc3c[nH]c4ccccc34)o2)CC1 | i | 1.05
Cc1ccc(-c2csc3ncnc(SCC(=O)c4ccc5c(c4)OCCO5)c23)cc1 | i | -1.57
COc1cc(Cl)c(S(=O)(=O)NCCN2CCOCC2)cc1Cl | i | 1.4
Cc1ccc(N=Cc2c(O)cc(C)oc2=O)c(C)c1 | i | -1.23
O=C(Nc1ccc(O)c(C(=O)O)c1)Oc1ccccc1 | i | -0.28
CC(C)NC(=O)CN1CCN(Cc2nc(C(c3ccccc3)c3ccccc3)no2)CC1 | i | -0.23
Cc1ccc(-c2nnc(Nc3ccc(OCC(N)=O)cc3)c3ccccc23)cc1S(N)(=O)=O | i | 1.4
O=C(COC(=O)Cn1cnc2ccccc2c1=O)NCC12CC3CC(CC(C3)C1)C2 | i | -2.5
CCOC(=O)c1sc2nc(C)n(N)c(=O)c2c1C | i | -0.02
CC(C)c1ccccc1NC(=S)NCCCn1ccnc1 | i | -1.48
O=C(c1ccc([N+](=O)[O-])s1)N1CCCc2ccccc21 | i | -0.36
COC(=O)c1ccc(NC(=O)CSc2ccc(-c3ccccn3)nn2)cc1 | i | -0.09
O=C1C=C(c2ccc3c(c2)OCO3)CCC1 | i | 1.38
CCn1nnnc1SCC(=O)Nc1ccc2c(c1)OCCO2 | i | -0.47
O=C(OCCN1C(=O)c2ccccc2C1=O)c1cnccn1 | i | 0.41
COc1cccc(C(=O)Nc2cc3c(cc2Br)OCCCO3)c1 | i | -9.28
COC(=O)c1sccc1NC(=O)Nc1cc(C)ccc1C | i | 1.78
Cc1ccc(S(=O)(=O)N2CCN(c3cnn(C)c(=O)c3Cl)CC2)cc1 | i | -0.1
CCOc1ccc2nc(NC(=O)C3=NN(c4ccccc4)C(=O)CC3)sc2c1 | i | 0.09
O=C(NCc1ccc2c(c1)OCO2)c1ccc(CSCc2cccc(Cl)c2)o1 | i | -0.51
CC1(c2ccccc2)NC(=O)N(CCOc2ccccc2)C1=O (stereo unspecified) | i | -1
CCCCOC(=O)/C(=C/C=C/c1ccccc1)NC(=O)c1ccccc1 | -6.86* | 0.43*
Nc1ccc(C(=O)N/N=C/c2cn(Cc3ccccc3)c3ccccc23)cc1 | i | 1
O=C(N/N=C/c1ccccn1)c1cccnc1 | i | 0.06
Cc1c(C(=O)OC2CCCCC2)sc2nc[nH]c(=O)c12 | i | -0.56
CS(=O)(=O)c1ccc2nc(NC(=O)c3ccccc3Cl)sc2c1 | i | -0.73
O=C(c1ccccc1Br)N1CCCC(c2nc(-c3cccs3)no2)C1 (stereo unspecified) | i | -0.83
Cn1c(=O)c2c(nc(N3CCCCCC3)n2CC(O)COc2ccc(Cl)cc2)n(C)c1=O (stereo unspecified) | i | -0.91
O=C(c1noc2c1CCc1ccccc1-2)N1CCCc2ccccc21 | i | -1.38
CCOC(=O)c1[nH]c(C)c(C(=O)NCCCOC(C)C)c1C | i | 1.14
Cc1cccc(COCC(CC(C)C)N2CCN(C(=O)c3ccc(C(C)(C)C)cc3)CCC2=O)c1 (stereo unspecified) | i | -1.42
O=C(/C=C/c1ccc([N+](=O)[O-])s1)N1CCCC1 | i | -0.12
COc1ccccc1C(=O)N/C(=C\c1cn(C)c2ccccc12)C(=O)N1CCOCC1 | i | -0.59
CC(C)(C(N)=O)c1ccccc1 | i | 0.01
Cc1c(NC(=O)Nc2ccccc2[N+](=O)[O-])c(=O)n(-c2ccccc2)n1C | i | 1.22
COC(=O)CCC(C)N1CCC(Oc2ccc(C(=O)NCc3ccccn3)cc2)CC1 (stereo unspecified) | i | -0.54
CCOC(=O)N1CCN(c2ccc(C(=O)c3ccccc3)cc2F)CC1 | i | -0.28
Cc1cc(COc2ccccc2OCc2cc(C)no2)on1 | i | -0.42
Cc1cccc(CNS(=O)(=O)c2ccc(-c3cnc(C4CC4)o3)cc2)c1 | i | 1.48
COc1ccc([C@@]2(O)c3c(ccc(CC=C(C)C)c3O)NC(=O)[C@@H]2OC)cc1 | i | -1.62
O=C(CSc1ncn[nH]1)Nc1c(F)cc(F)cc1Br | i | 1.37
Cc1ccc(O)c(NC(=S)NC(=O)/C=C/c2ccco2)c1 | i | -0.09
Cc1ccc2cc(/C=N/NC(=O)[C@@H]3CCCN3)c(Cl)nc2c1 | i | 4.51

Shown as labelled records: part of the list above.
> O=C(N/N=C/c1ccccn1)c1cccnc1
- KCNQ2 block: i
- KCNQ2 block baseline: 0.06

> Cc1c(C(=O)OC2CCCCC2)sc2nc[nH]c(=O)c12
- KCNQ2 block: i
- KCNQ2 block baseline: -0.56

> CS(=O)(=O)c1ccc2nc(NC(=O)c3ccccc3Cl)sc2c1
- KCNQ2 block: i
- KCNQ2 block baseline: -0.73

Later entries:
SMILES | KCNQ2 block | KCNQ2 block baseline
O=C(Nc1ccccn1)c1cccc(S(=O)(=O)N2CCCC2)c1 | i | 3.4
Cc1ccc(C(=O)Nc2cccc3cccnc23)cc1C | i | 0.96
CC(=O)Nc1ccc(C(=O)Nc2nnc(CCc3ccccc3)s2)cc1 | i | 1.47
O=C1OCCN1C(=O)[C@H]1[C@H](c2ccc([N+](=O)[O-])cc2)C(c2cccc(Cl)c2)=NN1c1ccccc1 | i | -0.6
Cc1ccccc1NC(=O)c1cc([N+](=O)[O-])ccc1NCCN1C(=O)CCC1=O | i | -0.35
O=c1[nH]c(/C=C/c2cccc(Br)c2)nc2ccccc12 | i | 0.78
O=C1CC[C@@H](OCc2ccccc2)CCN1CC[C@H](Sc1ccccc1)c1ccccc1 | i | -2.6
COc1ccc(-c2cc(C3CCN(C(=O)OC(C)(C)C)CC3)[nH]n2)cc1 | i | -0.63
COc1ccc(Cl)cc1NC(=O)CS(=O)(=O)c1cccc2nsnc12 | i | -0.11
O=C(Cn1nc(C(=O)O)c2ccccc2c1=O)NCCC1=CCCCC1 | i | -1.18
CC(C)NC1CS(=O)(=O)CC1O (stereo unspecified) | i | 7.48
CCOC(=O)C1CCCN(C(=O)/C=C/c2ccccc2[N+](=O)[O-])C1 (stereo unspecified) | i | 1.77
Cc1nn(-c2ccccc2)c(Cl)c1C(=O)Nc1ccccc1 | i | 0.72
Cc1ccc(-c2nnn(CC(=O)N(c3ccccc3)C(C(=O)NCC3CCCO3)c3ccc(Cl)cc3)n2)cc1 (stereo unspecified) | i | 0.31
NC(=O)c1ccc(NC(=O)COC(=O)CCCN2C(=O)c3cccc4cccc(c34)C2=O)cc1 | i | -0.04

Three compounds from above, arranged by length of the SMILES, smallest number first.
SMILES | KCNQ2 block | KCNQ2 block baseline
COc1ccc(-c2cc(C3CCN(C(=O)OC(C)(C)C)CC3)[nH]n2)cc1 | i | -0.63
O=C1CC[C@@H](OCc2ccccc2)CCN1CC[C@H](Sc1ccccc1)c1ccccc1 | i | -2.6
Cc1ccc(-c2nnn(CC(=O)N(c3ccccc3)C(C(=O)NCC3CCCO3)c3ccc(Cl)cc3)n2)cc1 (stereo unspecified) | i | 0.31

Carrying on:
SMILES | KCNQ2 block | KCNQ2 block baseline
O=C(Nc1ccccc1)c1ccccc1CC[N+](=O)[O-] | i | 1.11
COc1cc(/C=C/C(=O)OCC(=O)N2CC(=O)Nc3ccccc32)ccc1O | i | -0.13
CC(C1CC1)N(Cc1ccccc1)C(=O)NC(=O)c1ccc(F)cc1 (stereo unspecified) | i | 2.64
COC(=O)c1sc(NC(=O)CSc2nnnn2-c2ccc(C)cc2C)nc1C | i | -0.8
O=C(Cc1nn[nH]n1)Nc1ccc(F)cc1F | i | -1.16
O=C(O)CCC(=O)N1CCC(C(=O)c2cccc(Cl)c2)CC1 | i | -0.36
CCc1cccc(OCC(=O)Nc2ccc(S(=O)(=O)N3CCCC3)cc2)c1 | i | -0.08
COc1cc(C2OCC3C(c4cc(OC)c(OC)c(OC)c4)OCC23)cc(OC)c1OC (stereo unspecified) | i | -0.81
O=C(Nc1ccc2c(c1)OCCO2)c1ccco1 | i | -0.85
CCN(CC)C(=O)Cn1c(=O)n(CCCC(=O)NCc2ccc3c(c2)OCO3)c(=O)c2sccc21 | i | -0.75
CCn1c(/C=C/N(C(C)=O)c2ccccc2)[n+](CCCS(=O)(=O)[O-])c2cc(Cl)c(Cl)cc21 | i | -0.83
COc1ccc(N(CC(=O)NCc2ccccc2)S(=O)(=O)c2c(C)n[nH]c2C)cc1 | i | 1.34
COc1cccc(-c2ccc(NC(=O)C3CCCN(Cc4cnn(C)c4C)C3)cc2)c1 (stereo unspecified) | i | 0.95
COC(=O)CNC(=O)CN1C(=O)NC2(CCCc3ccccc32)C1=O (stereo unspecified) | i | 1.66
CCOC(=O)CN1C(=O)S/C(=C/C=C/c2ccc(N(C)C)cc2)C1=O | i | -1.68
Cc1ccc(NC(=O)c2nnn(-c3ccc4c(c3)OCCO4)c2N)cc1 | i | 0.31
COCC(C)n1c(C)cc(C(=O)COC(=O)c2c(NC(C)=O)sc(C)c2C)c1C (stereo unspecified) | i | 1.84
O=C(N/N=C/c1ccco1)c1cc(=O)[nH]c2ccccc12 | i | 0.33
CC(C)c1nc2oc3c(=O)[nH]cnc3c2c2c1COC(C)(C)C2 | i | 0.27
O=C1C2C3C=CC(C4CC34)C2C(=O)N1/N=C/c1ccc([N+](=O)[O-])s1 (stereo unspecified) | i | -0.3
O=C(Nc1ccc(Br)cc1F)c1ccc2c(c1)OCCO2 | i | 0.93
CC(C)C[C@H](NC(=O)N1CCN(c2ccccc2)CC1)C(=O)O | i | 1.06
C=CCn1c(SCc2cccnc2)nnc1-c1ccncc1 | i | 1.08
O=C(NCCc1ccccc1Cl)c1cc(COc2ccc(F)cc2F)on1 | i | 0.02
CN1CCN(c2nc(-c3ccccc3O)nc3ccccc23)CC1 | i | 1.5
O=C(O)C/C(=C\c1cc(Cl)c2c(c1)OCO2)c1nc2ccccc2s1 | i | 2.45
C[C@@H](CSc1ccccc1)CN1CC[C@H](C(C)(C)C)CCC1=O | -7.21* | -0.81*
C=CCOc1ccc(C2C(C(=O)c3cccs3)=C(O)C(=O)N2c2nnc(C)s2)cc1 (stereo unspecified) | i | 69.8
CC(=O)c1c(C)[nH]c(C(=O)N2CCN(c3cc(Cl)ccc3C)CC2)c1C | i | -0.46
CNC(=S)N1N=C2c3ccccc3CCC2C1c1ccccc1Cl (stereo unspecified) | i | 0.29

Individual results from above:
Result for CC(C)C[C@H](NC(=O)N1CCN(c2ccccc2)CC1)C(=O)O in KCNQ2 block baseline: 1.06
Result for COCC(C)n1c(C)cc(C(=O)COC(=O)c2c(NC(C)=O)sc(C)c2C)c1C (stereo unspecified) in KCNQ2 block baseline: 1.84

New compounds follow
SMILES | KCNQ2 block | KCNQ2 block baseline
O=C(/C=C\c1ccco1)Oc1cccc2cccnc12 | i | -0.01
CCc1ccccc1NC1c2ccccc2C(=O)N1c1cc(C)ccn1 (stereo unspecified) | i | -0.2
Cc1ccc(Cl)cc1NC(=O)c1cnn2c1NC(c1ccco1)CC2C(F)(F)F (stereo unspecified) | i | -0.79
Clc1ccc(C2[C@H]3CN(Cc4cccnc4)[C@H](c4ccccc4)C34CC2(c2ccccc2)C4)cn1 (stereo partly specified) | i | -0.89
O=C(NCc1ccncc1)C(=O)NCC1OCCCN1S(=O)(=O)c1ccc(F)cc1 (stereo unspecified) | i | 0.28
CC(=O)C1=C(O)C(=O)N(c2cccc(Br)c2)C1c1ccc(Br)cc1 (stereo unspecified) | i | -0.26
Cc1ccc2c(CN3CCCc4ccccc43)cc(=O)oc2c1C | i | -0.68
CC(=O)Nc1ccc(OCC(O)Cn2ccnc2)cc1 (stereo unspecified) | i | 1.35

5 entries drawn at random from those above:
SMILES | KCNQ2 block | KCNQ2 block baseline
Cc1ccc2c(CN3CCCc4ccccc43)cc(=O)oc2c1C | i | -0.68
CC(=O)Nc1ccc(OCC(O)Cn2ccnc2)cc1 (stereo unspecified) | i | 1.35
Clc1ccc(C2[C@H]3CN(Cc4cccnc4)[C@H](c4ccccc4)C34CC2(c2ccccc2)C4)cn1 (stereo partly specified) | i | -0.89
O=C(NCc1ccncc1)C(=O)NCC1OCCCN1S(=O)(=O)c1ccc(F)cc1 (stereo unspecified) | i | 0.28
CCc1ccccc1NC1c2ccccc2C(=O)N1c1cc(C)ccn1 (stereo unspecified) | i | -0.2

Source: PubChem BioAssay (Johns Hopkins Ion Channel Center)
